From PubChem BioAssay
NPYLR7 ag – mosquito NPYLR7 agonism. activation, % at 10 µM. HEK293T NPYLR7/Galpha15, GCaMP6s calcium fluorescence. actives 0.15% (n = 270,000); in the data active means activation above about 40%;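 further: 0% = vehicle and 100% = reference agonist at the receptor; some compounds past the cut are filed as inactive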
NPYLR7 ag max-min – further read-out of NPYLR7 ag, marked with its call; activation, %; measured here: Max-Min RFU normalised activation; some inactives read as strong as hits;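 span of the calcium signal over five minutes; 0% = vehicle and 100% = native peptide agonist; compound fluorescence can raise it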
The depositor's hits bear a star. A portion of the library, so the mix of outcomes need not match the whole.

Screens in order: NPYLR7 ag | NPYLR7 ag max-min
CCOC(=O)C1C(=O)N(C(=O)c2cncc(Br)c2)CC1c1ccccc1 (stereo not given)
    -1 | -6
COCCN(Cc1cc(NC(=O)COC)ccc1N(C)C)C(=O)c1cccc(C)c1
    2 | 9
CC1(C)Cc2c(c(N3CCCCC3)nc3sc(C#N)c(N)c23)CO1
    2 | 2
COc1ccc(NC(=O)Cn2c(-c3nnc(C)o3)cc3ccccc32)c(OC)c1
    7 | 1
CCCc1cc(=O)n(CC(=O)NCc2ccc(F)cc2)c(-n2nc(C)cc2C)n1
    -2 | -1
Nc1ccc(Oc2ccc(Br)cc2)cc1
    2 | 52
COC(=O)c1ccc(-c2noc(CN3CCC(c4ccncc4)CC3)n2)cc1
    2 | -2
COc1ccc(CNC(=O)N2CCN(C(c3ccc(F)cc3)c3ccc(F)cc3)CC2)cc1
    9 | 15
Cc1cccc(Nc2ncccc2C(=O)NC2CCC(C)CC2)c1C (stereo not given)
    -5 | -10
Cn1ncc(Oc2ccc3c(c2)OCO3)c(Nc2ccc(C(=O)N3CCOCC3)cc2)c1=O
    6 | 11
Nc1ccc(-c2cc3c(cn2)ncn3-c2cccc(C(F)(F)F)c2)cn1
    9 | 2
CC(C)c1nn(-c2cccc(Cl)c2)c(C(C)C)c1C(=O)NC1CC1
    0 | 6
CCNC(=S)NNc1nc(N2CCOCC2)nc(N2CCOCC2)n1
    -7 | -11
CS(=O)(=O)c1ccccc1S(=O)(=O)N1CCC(c2c[nH]c3ccc(F)cc23)CC1
    37 | 36
O=C(CCc1ccccc1)N1CCN(c2nc3ccccc3nc2-c2ccccc2)CC1
    3 | -4
CCOC(=O)CCC(=O)N(CC(=O)N1CCc2sccc2C1c1ccc(Cl)cc1Cl)CC(C)C (stereo not given)
    2 | -2
FC(F)(F)c1ccc2nnc(SCc3ccc(-c4csnn4)cc3)n2c1
    0 | 2
Cc1cnc(NCc2ccccc2-n2ccnc2)nc1N(C)C
    -3 | -4
CCOc1ccc(/C=C2N=C(/C=C/c3ccccc3OC)OC\2=O)cc1
    -3 | -10
Cn1nnnc1Sc1c([N+](=O)[O-])cc(C(F)(F)F)cc1[N+](=O)[O-]
    4 | 6
O=C(c1cn(Cc2cccc3ccccc23)nn1)N1CCC(c2nc3ccccc3o2)CC1
    18 | 9
Cc1cc(C(=O)NCC2(O)CCCNCC2)sc1-c1ccccc1 (stereo not given)
    5 | 3
Cn1c(=NC(=O)C2CCCC2)sc2ccccc21
    4 | 1
CCC1CCCCN1C(=O)c1cccc(NC(=O)C2CCCC2)c1 (stereo not given)
    -7 | -9
COCCCNCc1nc2sc(C)c(C)c2c(=O)[nH]1
    24 | 22
COc1ccc2c(c1)OCC(C=C(C#N)c1ccccn1)=C2
    8 | 4
O=C1OC(c2ccccc2)=N/C1=C\c1ccccc1F
    2 | -2
COC(=O)CCCC(=O)N1CCOC(Cc2cccc(OC)c2)C1 (stereo not given)
    5 | 2
COc1ccc2[nH]c(C(=O)NCCCn3cncn3)c(C)c2c1
    4 | 1
CCCCN(Cc1cccn1C)C(=O)CN(C(=O)Nc1ccc(C)c(Cl)c1)C(C)C
    -5 | 0

Exported field by field: entries from further up
CCC1CCCCN1C(=O)c1cccc(NC(=O)C2CCCC2)c1 (stereo not given)
  NPYLR7 ag = -7	NPYLR7 ag max-min = -9

COC(=O)CCCC(=O)N1CCOC(Cc2cccc(OC)c2)C1 (stereo not given)
  NPYLR7 ag = 5	NPYLR7 ag max-min = 2

CCOc1ccc(/C=C2N=C(/C=C/c3ccccc3OC)OC\2=O)cc1
  NPYLR7 ag = -3	NPYLR7 ag max-min = -10

(listing goes on)
Screens in order: NPYLR7 ag | NPYLR7 ag max-min
COCc1nc(-c2cc(C)n(NC(=O)c3ccccc3)c2C)cs1
    1 | 45
CCc1nc2ccc(C(=O)Nc3cccc(NS(C)(=O)=O)c3)cn2c1N(CC)C(=O)NCCc1ccccc1
    -24 | -26
CN(Cc1ccc2ccccc2n1)Cc1ccccc1C(=O)O
    5 | -6
c1ccc(Nc2ccc(-n3ccnc3)nn2)cc1
    0 | 0
Cc1cc(C)c(S(=O)(=O)N2CCCOC2CNC(=O)C(=O)NCCCN2CCCC2=O)c(C)c1 (stereo not given)
    1 | 3
COc1ccc(C)cc1-n1nnc(-c2nc(-c3ccccc3Cl)no2)c1C
    4 | -5
Cc1ccc(N=Cc2nc(-c3ccc(Cl)cc3)oc2O)cc1
    -4 | -6
O=C(CN1Cc2ccc(N3CCOCC3)nc2C1=O)NCC1CCOCC1
    -12 | -15
O=C(O)c1ccnc(-c2ccnc(-c3ccco3)n2)c1
    5 | 2
CC(C)CNC(=O)CCn1cnc2ccccc2c1=O
    9 | 6
Nc1cc(-c2cccc(Cl)c2)nn1-c1ccc(C(=O)Nc2ccc3ncsc3c2)cc1
    4 | -3
O=C(Nc1nccs1)c1cc2ccccc2o1
    3 | -1
O=C(Nc1ccc(F)cc1)C1CC(=O)N(Cc2ccccc2)C(=Nc2ccc(Cl)cc2)S1 (stereo not given)
    -7 | -11
O=C(N1CCOC(COc2cccc(C(F)(F)F)c2)C1)C1(c2ccccc2)CC1 (stereo not given)
    23 | 24
Cc1cccc(NC(=O)c2cc3cc(Br)ccc3oc2=N)c1
    -3 | -5

New compounds follow.
Molecule	NPYLR7 ag	NPYLR7 ag max-min
CC(C)S(=O)(=O)c1cccc(C(=O)N(Cc2ccncc2)c2nc3c(Cl)cccc3s2)c1	-3	-8
C#CCNC(=O)CS(=O)(=O)Nc1ccc(N2CCCCC2)cc1	2	0
CC[C@@H](C)[C@H]1O[C@]2(CC[C@@H]1C)C[C@@H]1C[C@@H](C/C=C(\C)[C@@H](O[C@H]3C[C@H](OC)[C@@H](O[C@H]4C[C@H](OC)[C@@H](O)[C@H](C)O4)[C@H](C)O3)[C@@H](C)/C=C/C=C3\CO[C@@H]4[C@H](O)C(C)=C[C@@H](C(=O)O1)[C@]34O)O2	5	-35
CCn1c(O)c(N=NC(=O)c2ccccc2Cl)c2ccccc21	-2	6
C=CCn1c(-c2ccccc2)nn(CN2CCN(Cc3ccccc3)CC2)c1=S	16	27
CC(C)N(CC(=O)NCCc1ccc(S(N)(=O)=O)cc1)c1cnn(C)c1	5	2
CCn1nc(C(=O)O)c2c1CCC(NCc1cn3nc(C)sc3n1)C2 (stereo not given)	13	11
Cc1cc(Cl)ccc1Nc1nc(N2CCOCC2)nc2nccnc12	0	10
COc1ccc(CNC(=O)c2ccc(-n3nc(-c4cccc(Cl)c4)cc3N)cc2)c(OC)c1	0	-4
O=C(CCc1ccc2ccccc2c1)Nc1ccc(F)cn1	1	-1
COC(=O)c1ccccc1-n1c(C)cc(C=O)c1C	9	8
N#Cc1ccc(COC2C[C@](OCc3cccc(F)c3)(C(=O)NCC3CCCO3)C[C@@H](O)[C@H]2O)cc1 (stereo not given in full)	2	2
Nc1cc(-c2cccc(C(F)(F)F)c2)nn1-c1ccc(C(=O)NCCC2=CCCCC2)cc1	-9	-11
CCc1nc(N(CCC(=O)NCc2ccco2)C(C)c2ccccc2)c2ccc(Cl)cc2n1 (stereo not given)	14	11
COc1ccc(OCc2cc(C(=O)NC(C)(C)CO)no2)c2ccccc12	1	-3
CCSC1CCC(N(C)CC(=O)Nc2c(C)n[nH]c2C)C1 (stereo not given)	6	2
Cc1c(NC(=O)c2cccc(C(N)=O)c2)cccc1OC1CCCC1	15	5
C=CCn1c(SCc2ccccc2C(F)(F)F)nnc1-c1cccc(C)c1	19	19
Cc1ccc(Cl)c2sc(N(Cc3ccncc3)C(=O)c3ccc(C#N)cc3)nc12	-4	-8
Cc1cc(C2CC3CCC2C3)cc(C)c1O (stereo not given)	-4	-8
COc1ccc(CN2CCCC(N3CCN(c4ccccc4C)CC3)C2)cc1 (stereo not given)	-5	-6
O=C(N/N=C\C=C\c1ccccc1)/C(=C/c1cccs1)NC(=O)c1ccccc1	0	-1
Cc1cc(C)c(NC(=O)Cn2nnc(C(=O)NCCc3ccccc3)c2N)c(C)c1	-6	-13
N#CC1(C#N)C(c2ccccc2)C2CSC(Cc3ccccc3)(S2)C1(C#N)C#N (stereo not given)	-4	-8
COCc1cc(C)nc(N/N=C\c2cccc(OCc3ccccc3Cl)c2)c1C#N	-2	7

Compound profiles, as listed above. Order of values: NPYLR7 ag, NPYLR7 ag max-min
Cc1c(NC(=O)c2cccc(C(N)=O)c2)cccc1OC1CCCC1 is entered as 15, 5
N#CC1(C#N)C(c2ccccc2)C2CSC(Cc3ccccc3)(S2)C1(C#N)C#N (stereo not given) is entered as -4, -8
C=CCn1c(-c2ccccc2)nn(CN2CCN(Cc3ccccc3)CC2)c1=S is entered as 16, 27
CC(C)N(CC(=O)NCCc1ccc(S(N)(=O)=O)cc1)c1cnn(C)c1 is entered as 5, 2

The results go on:
Molecule	NPYLR7 ag	NPYLR7 ag max-min
Cc1cc(C)n(Cc2cc(C(=O)N(C)CCCn3cccn3)n[nH]2)n1	12	8
C=CCNc1ncnc2c1sc1nc(C)c3c(c12)CC(C)(C)OC3	-6	-6
COc1ccc(S(=O)(=O)N2CCCC(C)C2)cc1N1CCN(S(=O)(=O)c2cccc(F)c2)CC1 (stereo not given)	29	19
Cc1cccc(Cn2c(=O)c(C(=O)NCC3CCCO3)nn(-c3ccc(F)cc3)c2=O)c1 (stereo not given)	-5	2
CC(C)CCNC(=O)c1cn(C)c2c(=O)n(-c3ccc(F)cc3)c(=O)[nH]c12	-1	-4
Cc1ccc(C)c(OC2CCN(CC(=O)Nc3cccnc3)CC2)c1	-25	-27
Cc1ccc(-c2nc(CNS(=O)(=O)N(C)C)[nH]c2-c2ccccn2)cc1	1	2
COCCN(Cc1ccc(OS(=O)(=O)c2ccc(F)cc2)cc1)C(=O)Nc1cccc(F)c1	-1	5
N#CCCSc1nc2ccc([N+](=O)[O-])cc2s1	4	2
O=C(c1ccc([N+](=O)[O-])cc1)N(Cc1ccccc1)c1c(-c2ccccc2O)nc2ccc(Br)cn12	3	10
CCC(C(=O)Oc1coc(CSc2ncccn2)cc1=O)c1ccccc1 (stereo not given)	-10	-9
Cc1ccccc1CCN1CCCC(CN(C)Cc2cccc(O)c2)C1 (stereo not given)	5	3
CCOC(=O)C1(Cc2cccc(Cl)c2)CCCN(C(=O)c2ocnc2C)C1 (stereo not given)	-11	-15
COc1cc(-c2[nH]ncc2CN(CCO)Cc2ccccc2)cc(OC)c1OC	18	5
CC(C)(C)OC(=O)N1CCc2ccccc2C1C(=O)O (stereo not given)	4	3
CC1=C(C(=O)N(C)C)C(c2ccc(-c3ccccc3)cc2)NC(=O)N1 (stereo not given)	-1	-2
CCOc1ccc(NC(=O)CCN2C(=O)c3ccccc3C2=O)cc1	-8	-10
O=C(CSc1nc(=O)n(CCN2CCOCC2)c2c1CCCC2)NCc1ccccc1	2	8
CC1CCN(C(c2ccc(F)cc2)C2Sc3ncnn3C2=O)CC1 (stereo not given)	2	-1
CCS(=O)(=O)N1CCN(c2ccc(-n3nc(C)c(C)c3C)nn2)CC1	-2	-4
COc1ccc(-c2ccc(C(=O)N3CCC(Cc4ccccc4)CC3)s2)c(OC)c1OC	25	41
COc1cc(Cn2nc(C)c3cnn(-c4ccc(F)cc4)c3c2=O)cc(OC)c1	4	1
